Screening data (PubChem BioAssay)
UCH37 DUB inh: blocks the human deubiquitinase UCH37. Q9Y5K5. purified proteasome/UCH37, Ub-AMC cleavage fluorescence. inhibition, % (no concentration beside the values). 330,000 tested, 0.33% active. AID 588478;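 active = mean of two replicates above 20%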;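 also: 0% = compound-free wells with enzyme and 100% = wells lacking proteasome; stock transfer was 100 nL into about 20 µL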
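Material: human UCH37 enzyme supplied as purified proteasome complex / Amount: 0.15 nM proteasome as dispensed / Buffer or medium: pH 7.4 Tris-HCl (50 mM) with ovalbumin, ATP-MgCl2, DTT / Times: preincubation 30 min, reaction 25 min, room temperature / Technique: AMC fluorescence from Ub-AMC cleavage, excitation 355 nm, emission 460 nm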
AF4-AF9 inh: blocks AF4 peptide binding to human AF9. P42568. AlphaScreen, biotin-AF4 peptide binding to FLAG-AF9. inhibition, % at 10 µM. 350,000 tested, 0.47% active;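 active = every replicate reaching a set inhibition limit, whatever the replicate mean, cut at about 25% in these data; inconclusive = mean inhibition reaches that limit but some replicates miss it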;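 also: 0% = plate neutral control median and 100% = total signal loss; the record names both 10 and 1 µM as test concentration; the first replicate is given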
Target sequence (P42568 whole entry, looked up): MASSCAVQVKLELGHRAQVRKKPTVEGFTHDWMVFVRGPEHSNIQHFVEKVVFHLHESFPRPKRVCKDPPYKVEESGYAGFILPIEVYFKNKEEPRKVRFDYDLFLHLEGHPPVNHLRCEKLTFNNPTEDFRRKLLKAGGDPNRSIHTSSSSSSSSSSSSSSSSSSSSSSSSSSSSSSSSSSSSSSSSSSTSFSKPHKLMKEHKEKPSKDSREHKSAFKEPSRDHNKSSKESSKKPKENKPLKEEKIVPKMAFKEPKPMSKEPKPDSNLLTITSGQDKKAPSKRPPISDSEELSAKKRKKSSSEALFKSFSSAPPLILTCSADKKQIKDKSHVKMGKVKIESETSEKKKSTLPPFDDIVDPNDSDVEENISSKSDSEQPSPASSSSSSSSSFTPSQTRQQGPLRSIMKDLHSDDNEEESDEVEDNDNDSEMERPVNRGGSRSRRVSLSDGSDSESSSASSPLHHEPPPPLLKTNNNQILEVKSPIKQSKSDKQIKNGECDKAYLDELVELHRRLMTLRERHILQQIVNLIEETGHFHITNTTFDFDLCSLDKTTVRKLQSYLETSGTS
Ecoli growth: blocks Escherichia coli growth; OD600, 23 h; hits give low values; OD600 absorbance (test concentration not listed); 330,000 tested, 0.21% active; AID 1053175;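 active = OD600 absorbance below the run mean of sample wells minus 3.6 SD, in any replicate, cut at about 0.56 in these data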;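 also: stock transfer was 300 nL into about 60 µL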
Ecoli rRNA inh: selective bacterial rRNA inhibition in E. coli; E. coli WT GFP vs humanized-ribosome RFP mutants, fluorescence, 24 h; hits give low values; DMSO median 0, no signal -100; GFP signal change (wild-type ribosome), % (concentration not given with the values); 350,000 tested, 1.6% active;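 active = significant combined selectivity score with lowered wild-type GFP, culture density cut under 30%, mutant RFP and density less affected; inactive = any of these conditions unmet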; also: one replicate is shown; some compounds called inactive have numbers as strong as hits
Beta apoptosis: blocks beta cell apoptosis. INS-1E cytokine-induced death, ATP luminescence, 48 h; percent of positive-control rescue, neutral wells zero. protection from apoptosis, % (no concentration beside the values). 300,000 tested, 0.8% active. AID 435005;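 active = all replicates at 75% or more, or half of them and the mean; inconclusive = half reach 75% but not the mean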;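 also: 0% = cytokine-treated negative control wells and 100% = positive control rescue; higher means more ATP so stronger rescue from cytokine killing; wells of about 40 µL received 100 nL stock; the first replicate is given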
A1 inh: inhibitors of the anti-apoptotic protein A1, read as caspase activation. caspase activation, % (no concentration beside the values). 330,000 tested, 0.066% active. MEF A1-2A-BIM cells, Caspase-Glo 3/7 luminescence, 3 h; percent of clofoctol response, vehicle zero;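 active = over half of replicate activation scores above 10%, or exactly half above 10 with the replicate mean above 10; inconclusive = replicate mean below 10 yet half the replicates above 10; inactive = over half of replicates below 10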;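 also: wells of about 30 µL received 50 nL stock; many hits fall short of the cut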
T cruzi repl: blocks replication of Trypanosoma cruzi | T. cruzi beta-gal in NIH3T3, luminescence, 90 h | inhibition, % (no concentration beside the values) | 300,000 tested, 1.4% active;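 active = mean inhibition across valid replicates above about 55%, limit read from the data; inconclusive = mean below that limit but half or more replicates reach it; inactive = mean below it, under half of replicates reach it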;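 also: signal also drops with host cell toxicity which is not excluded here; 0% = plate median of DMSO wells and 100% = zero luminescence signal; higher percent means less beta-gal luminescence so fewer parasites; stock transfer was 50 nL into about 50 µL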
FGF22 binding: binders of recombinant human FGF22 by thermal shift. Q9HCT0. SYPRO orange fluorescence; percent of sucrose octasulfate shift, DMSO zero. calls only at 9.99 µM. 340,000 tested, 1.5% active;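 active = melting point raised past a set limit in the mean and every replicate; inconclusive = no clear call; three in four hits are not shown here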
Target sequence (Q9HCT0 whole entry, looked up): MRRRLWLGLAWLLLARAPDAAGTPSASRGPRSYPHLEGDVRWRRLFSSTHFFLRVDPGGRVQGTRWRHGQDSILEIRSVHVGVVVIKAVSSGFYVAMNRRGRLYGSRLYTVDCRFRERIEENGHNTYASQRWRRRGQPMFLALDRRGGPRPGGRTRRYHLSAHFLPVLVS
Ecoli rRNA inh OD600: also measured in Ecoli rRNA inh; calls as there; OD600 change, %; measured here: OD600 growth;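 optical density of the mix in the first replicate; 0 = DMSO median and -100 = no signal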
Ecoli rRNA inh RFP: also measured in Ecoli rRNA inh; calls as there; RFP signal change, %; measured here: RFP humanized mutant strains;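 first replicate; 0 = DMSO median and -100 = no signal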
* hit, by the source's call; i = inactive; ? = inconclusive; / = no result given.

SMILES | UCH37 DUB inh | AF4-AF9 inh | Ecoli growth | Ecoli rRNA inh | Ecoli rRNA inh OD600 | Ecoli rRNA inh RFP | Beta apoptosis | A1 inh | T cruzi repl | FGF22 binding
CC1CCc2sc(C(=O)NNC(=O)c3ccncc3)cc2C1 (centres undefined) | 6.0 | -16 | 0.7 | -6 | -1 | -1.6 | -2 | -0.1 | -6 | i
CCOc1ccc(OCCC(=O)NNC(=O)c2ccccc2Cl)cc1 | 1.6 | 0.2 | 0.64 | 17 | 9 | 1.8 | 1 | -0.6 | 0 | i
O=C(OCCOCCN=C1NS(=O)(=O)c2ccccc21)c1ccc(F)cc1 | -0.5 | -2.1 | 0.65 | 5 | 4 | -2.5 | -1 | 0.1 | -10 | i
c1ccc(C[n+]2cccc(-c3ccccc3)c2)cc1 | 2.6 | 1.9 | 0.69 | 0 | 4 | -6.9 | -20 | 0.7 | -20 | i
COc1cccc(NC(=O)COc2cccc(-n3cnnn3)c2)c1 | 1.9 | -9.2 | 0.62 | 2 | 11 | 2.6 | -2 | 0.6 | -1 | i
NS(=O)(=O)c1ccc(CCNC(=O)c2ccc3c(c2)OCO3)cc1 | 5.0 | -1.1 | 0.7 | -1 | -1 | -4.4 | 0 | 0.5 | 3 | i
COC(=O)c1cc(Cl)c(NC(=O)Cc2ccccc2)cc1OC | 1.3 | -17 | 0.65 | -13 | 17 | -2.0 | -3 | 0.1 | -2 | i
O=C(Nc1cccc2ccccc12)NC1CCCCC1 | 0.7 | -0.4 | 0.66 | 23 | 13 | 2.0 | -2 | 0.3 | -17 | i
Cc1ccnc(N2C(=O)C3C4CC(C(Br)C4Br)C3C2=O)c1 (centres undefined) | 4.3 | / | 0.69 | / | / | / | -7 | 0.7 | -15 | /
COc1ccc(Cc2nnc(SCC(=O)N3CCCC3)o2)cc1 | 1.9 | -4.4 | 0.68 | 2 | -7 | -0.2 | 0 | 0.6 | -21 | i
CC(C)Sc1nc2c(cnn2-c2ccc(Cl)cc2)c(=O)[nH]1 | 0.9 | 0.0 | 0.7 | 6 | 10 | 1.7 | 2 | 0.3 | -6 | i
COc1ccc(C(=O)NCc2nnc(SCC(=O)c3ccccc3)o2)cc1 | 2.6 | -5.1 | 0.65 | 1 | 3 | 2.7 | -3 | 1.0 | -1 | i
Cn1c(N)c(C(=O)COC(=O)C2(c3ccc(F)cc3)CCCC2)c(=O)n(C)c1=O | -1.3 | / | 0.7 | / | / | / | 8 | -0.4 | -10 | /
O=S(=O)(c1ccc(Cl)s1)N1CCN(c2ncccn2)CC1 | 4.2 | 0.1 | 0.66 | 8 | 3 | -9.1 | 10 | 0.0 | 16 | i
Cc1ccc(S(=O)(=O)N2[C@@H](c3ccc(F)cc3)C(C(=O)O)=CC[C@H]2c2cccs2)cc1 | -0.2 | / | / | -14 | -7 | -0.9 | -3 | 0.8 | / | i
COc1ccc(CCNc2ccc(S(N)(=O)=O)cn2)cc1 | 2.7 | 3.7 | 0.71 | 1 | 2 | -2.3 | 1 | 0.4 | -4 | i
CN(c1ccc(C(=O)NCc2ccccc2)cc1)S(C)(=O)=O | 1.2 | / | 0.67 | / | / | / | 3 | 0.2 | -14 | /
Cc1ccc(-c2nn3c(C)nnc3c3ccccc23)cc1S(=O)(=O)NCc1ccco1 | -6.4 | / | 0.69 | / | / | / | 20 | 1.1 | 18 | /
Cc1cccc(NS(=O)(=O)c2ccc(Cl)cc2)n1 | -9.6 | -0.5 | 0.66 | 10 | 8 | -0.6 | -1 | 0.5 | 0 | i
CCOC(=O)C1C(=O)NC(N2CCN(c3ccccc3)CC2)=NC1c1ccccc1 (centres undefined) | 3.3 | / | 0.76 | / | / | / | -3 | 0.1 | -13 | /
O=C(Nc1cccc(Cl)c1)c1cc(S(=O)(=O)NCCc2ccc(Cl)cc2)ccc1F | 1.9 | -9.9 | 0.67 | -37 | -39 | 9.8 | -13 | 0.0 | 44 | i
c1cc(C2CCN(Cc3nc(-c4ccc5c(c4)OCO5)no3)CC2)ccn1 | 1.1 | -4.2 | 0.67 | 1 | -3 | 6.1 | 1 | 0.3 | 27 | i
CC1(C)CC2CC(C)(CN2c2ncnc3ccccc23)C1 (centres undefined) | 3.7 | 0.4 | 0.66 | -27* | -15* | -3.2* | 53 | 0.1 | -10 | i
COc1ccc(C(=O)N/C(N)=N/c2nc3ccccc3o2)cc1 | -15 | / | 0.73 | / | / | / | -12 | 0.2 | 6 | /
CN1CCN(CCCNc2nc3ccccc3c3nc(-c4ccccc4)nn23)CC1 | -3.2 | 19 | 0.67 | -2 | 13 | 2.9 | / | / | / | i
CCN(CC)c1ncnc2c1ncn2Cc1c(Cl)cccc1Cl | 1.3 | / | 0.72 | / | / | / | 14 | 0.2 | -1 | /
O=C(COC(=O)c1cc(S(=O)(=O)N2CCCCC2)ccc1Cl)NCc1ccco1 | 0.6 | -0.2 | 0.67 | 1 | 0 | 2.4 | -6 | 0.0 | -2 | i
Cc1noc(C)c1COc1ccc(C(=O)N2CCN(S(=O)(=O)c3ccccc3)CC2)cc1 | 4.2 | 1.9 | 0.7 | -12 | -17 | -3.3 | -6 | 0.6 | / | i
COc1ccc(C(=O)OCC(=O)NC2CCCCCC2)c(OC)c1 | 3.1 | -4.5 | 0.68 | -5 | -2 | 1.6 | / | / | / | i
CS(=O)(=O)N(CC(=O)N1CCN(Cc2ccccc2)CC1)c1cccc(Cl)c1 | -1.8 | 0.6 | 0.69 | 3 | -9 | 1.8 | 10 | 0.4 | 9 | i
O=[N+]([O-])c1cccc(-c2cnc3ccccc3n2)c1 | 3.0 | 0.8 | 0.62 | 7 | 0 | 1.1 | -1 | -4.5 | -2 | i
C=CCn1c(SCC(=O)Nc2ccc(F)cc2)nc2ccccc2c1=O | 1.8 | -2.4 | 0.66 | -1 | 6 | -1.1 | -3 | 0.3 | ? | i
CC(C)(CNC(=O)Cc1ccc(Cl)cc1Cl)N1CCCCC1 | 0.5 | 4.6 | 0.68 | 13 | 12 | 0.5 | -1 | -0.5 | 16 | i
COc1ccc(Nc2nc3c([nH]2)c(=O)[nH]c(=O)n3C)cc1 | -2.8 | -0.1 | 0.75 | 5 | 3 | -1.7 | 3 | 0.5 | -16 | i
C#CC[N+]1(CC#Cc2cccc3ccccc23)CCOCC1 | 1.7 | 0.6 | 0.6 | 11 | 3 | 1.2 | 2 | 0.5 | -8 | i
O=Cc1ccc(OCc2ccccn2)cc1 | 1.4 | / | 0.72 | / | / | / | -1 | -3.4 | 1 | /
COc1ccc(Cl)cc1CN1CCN(c2nc(C)cc(C)c2C#N)CC1 | -2.6 | / | 0.73 | / | / | / | 0 | -0.1 | 22 | /
Cc1cc(O)cc(C)c1NS(=O)(=O)c1ccc2ccccc2c1 | 3.0 | 0.9 | 0.65 | -22 | -57 | -2.0 | -2 | -1.0 | 8 | i
CC(C)c1nnc(NC(=O)CCC(=O)Nc2ccccc2)s1 | 3.2 | -2.4 | 0.69 | / | / | / | -3 | -0.5 | 9 | i
O=C(OCCN1CCOCC1)c1ccccc1 | 0.6 | -1.0 | 0.67 | 6 | 7 | 14 | -5 | -0.9 | -10 | i
CC1CN(CCCOc2ccc([N+](=O)[O-])cc2)CC(C)O1 (centres undefined) | 7.4 | / | 0.72 | / | / | / | 3 | 0.3 | 2 | /
CCOc1ccc(NC(=S)NS(=O)(=O)c2cc(Br)ccc2OCC)cc1 | 1.8 | 2.1 | 0.67 | -7 | -7 | -1.2 | -9 | 0.5 | / | i
CCn1c(C)nnc1SCC(=O)Nc1ccc2c(c1)OCCO2 | 0.2 | -3.1 | 0.7 | 4 | 3 | 3.4 | 0 | 0.0 | 2 | i
COc1cc(NC(=O)CN2CCC(C)CC2)c(C)cc1[N+](=O)[O-] | 5.7 | / | 0.72 | / | / | / | 2 | -0.5 | 10 | /
COc1ccc(CNC(=O)CN2C(=O)C3CCCN3c3ncc(Cl)cc32)cc1 (centres undefined) | -15 | / | 0.67 | / | / | / | -1 | 0.1 | 12 | /
Cc1ccc2nc(-c3ccc(NS(=O)(=O)c4c(C)n(C)c(=O)n(C)c4=O)cc3)sc2c1 | / | 5.5 | / | 0 | 2 | -2.1 | -2 | 0.8 | 35 | i
COc1ccc(CCNC(=S)NC(=O)c2cccc(Cl)c2)cc1OC | 0.8 | 2.0 | 0.68 | / | / | / | 1 | 0.4 | -19 | i
CCCc1c(O)nc(SCc2ccccc2)[nH]c1=O | 3.3 | / | 0.69 | / | / | / | 1 | 1.0 | -16 | /
Cc1cccc(NC(=O)CSC(N)=O)c1C | 4.1 | / | 0.74 | / | / | / | -29 | 0.3 | -8 | /
CC(c1ccccc1)N1C(=O)/C(=C/c2ccncc2)SC1=S (centres undefined) | 3.2 | 6.6 | 0.63 | -6 | -7 | 5.6 | / | 0.2 | -1 | i
CC(C)CCNC(=O)CN1C(=O)NC(c2ccccc2)(c2ccccc2)C1=O | 1.3 | 1.0 | 0.66 | -3 | -10 | -2.1 | 4 | 0.2 | -8 | i
O=c1c2c(-c3ccccc3)csc2ncn1/N=C/c1c2ccccc2cc2ccccc12 | / | -0.2 | / | 1 | -3 | -5.0 | -6 | -0.9 | 30 | i
Cc1nc(SCC(N)=O)c(C#N)c(C)c1C | 1.1 | -3.3 | 0.62 | 10 | 8 | -1.0 | 0 | 1.3 | 5 | i
S=C(NCCN1CCOCC1)Nc1ccc(Nc2ccccc2)cc1 | 0.1 | 5.7 | 0.67 | -2 | -3 | -0.4 | -9 | 0.8 | 4 | i
Cc1ccc(NC(=O)C2CCN(C(=O)c3cccs3)CC2)cc1 | 1.9 | -2.7 | 0.63 | -2 | -12 | -0.8 | 0 | -0.4 | -8 | i
CC(=O)c1cc(C#N)c(N2CC(C)OC(C)C2)nc1C (centres undefined) | 0.9 | -7.2 | 0.63 | 1 | 2 | -4.4 | 0 | 0.1 | -17 | i
CC1CCCC(C)N1C(=O)COC(=O)CCC(=O)c1cccs1 (centres undefined) | -2.4 | -3.8 | 0.67 | 3 | 2 | -2.7 | -2 | -0.3 | / | i
CCC(=O)N1CC2(C)CN(C(=O)CC)CC(C)(C1)C2 | 1.2 | / | 0.68 | / | / | / | 3 | 1.0 | -4 | /

An excerpt from above with just FGF22 binding and Ecoli rRNA inh RFP.
SMILES,FGF22 binding,Ecoli rRNA inh RFP
Cc1nc(SCC(N)=O)c(C#N)c(C)c1C,i,-1.0
CC1CCCC(C)N1C(=O)COC(=O)CCC(=O)c1cccs1 (centres undefined),i,-2.7

This is a subset (hit frequency here may not be typical).
